# HCMV UL50-53 inh: inhibitors of HCMV UL50-UL53 nuclear egress complex interaction | HTRF UL50-UL53 interaction, normalized percent inhibition | inhibition, % (no concentration beside the values) | 190,000 compounds, 0.15% hits | AID 1918969;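 active means both replicates at 50% or more, plus weaker picks with an unusually low signal ratio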;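 further: stock transfer was 100 nL into about 20 µL; 0% = negative control wells and 100% = wells with untagged competitor protein; inactives centre near -12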
# Sa growth inh: blocks Staphylococcus aureus growth; AID 720641; S. aureus RN4220 growth, OD600, 20 h, 42 °C; stronger effect = lower value; 170,000 compounds, 0.53% hits; relative growth, % (test concentration not listed);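 active means growth at 42 °C up to 50% and 20 or more points under that at 30 °C, or under 10% at both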;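 further: 300 nL library stock went into each well; scaled to the means of positive and negative controls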
# GIV-Gai inh: GIV-Galpha-i interaction inhibition; P08753; Galpha-i3/FITC-GIV peptide fluorescence polarization, 90 min; stronger effect = lower value; scaled: aluminum fluoride 0%, vehicle 100%; percent of control (FP), % (concentration not given with the values); 210,000 compounds, 0.42% hits; AID 1224905;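 active means replicate mean at 85% of control or lower, very high polarization wells dropped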;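 further: wells of about 15 µL received 100 nL stock; the first replicate is given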
# Target sequence (P08753 whole entry, looked up): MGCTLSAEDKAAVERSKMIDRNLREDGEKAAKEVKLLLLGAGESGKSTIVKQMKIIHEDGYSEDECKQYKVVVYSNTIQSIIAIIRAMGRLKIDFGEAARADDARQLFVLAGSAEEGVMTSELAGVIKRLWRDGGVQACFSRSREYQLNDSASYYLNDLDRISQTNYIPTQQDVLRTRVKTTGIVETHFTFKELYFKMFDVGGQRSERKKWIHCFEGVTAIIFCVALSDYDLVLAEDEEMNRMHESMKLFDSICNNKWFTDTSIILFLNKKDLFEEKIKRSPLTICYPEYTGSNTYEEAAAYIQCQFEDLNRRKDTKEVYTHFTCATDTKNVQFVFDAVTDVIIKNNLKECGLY
# Sa growth inh second temp: further read-out of Sa growth inh, marked with its call; relative growth, %; measured here: growth at 30 °C;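 optical density after 20 h as mean of two plates; 100% = untreated growth and lower means inhibition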
# * = called active by the depositor; . = no result given; & = joins results of further samples.
SMILES,HCMV UL50-53 inh,Sa growth inh,Sa growth inh second temp,GIV-Gai inh
O=C(CCN(CC1CCCO1)C(=O)c1ccc(F)cc1)N1CCNCC1 (stereo not drawn),-15,.,.,96
O=P(O)(CCc1ccccc1)CN1CCCCC1,9,100,109,103
Cc1ccc(NS(=O)(=O)c2cccc(C(=O)NC3CC3)c2)c(C)c1,-29,104,83,.
CNS(=O)(=O)c1cn(CC(=O)Nc2ccc(C)cc2C)cc1S(=O)(=O)NC,.,109,98,101
CC12CCC3c4ccc(OC(=O)c5ccccc5)cc4CCC3C1CCC2O (stereo not drawn),-36,92,86,.
O=C(COC(=O)c1ccc(-c2nc3ccccc3s2)s1)NC1CC1,-34,104,97,.
CCC(CC)C(=O)n1c(=O)oc2ccc(C)cc21,-8&0,97,90,103&111
O=C(COc1ccc(Cl)cc1)Nc1noc(-c2ccccc2)n1,-11,.,.,99
COc1ccccc1OCCN1CCN(CCOc2ccccc2OC)CC1,-9,107,91,103
CS(=O)(=O)Nc1ccccn1,14,99,105,.
COc1ccc(-n2cc(C(=O)NCCc3cc(OC)ccc3OC)c3ccccc3c2=O)cc1,.,93,99,100
COc1cccc(CNC(=O)c2ccc3noc(-c4ccc(Cl)cc4)c3c2)c1,-16,.,.,97
CC(=O)Nc1ccc(S(=O)(=O)Nc2ccc3c(c2)OC(C)(C)O3)cc1,-12,102,73,108
COc1ccc(N2CCN(S(=O)(=O)c3ccsc3C(=O)n3nc(C)cc3C)CC2)cc1,20,.,.,101
COc1ccccc1NS(=O)(=O)c1ccc(N)cc1,11,75,89,.
CCOC(=O)c1c(NC(=O)c2cc(=O)c3cc(C)ccc3o2)sc2c1CCCC2,-21,110,89,109
COc1cc(OC)c(NC(=O)Cn2c3ccccc3c3nc(=O)cc(C)n32)cc1Cl,-1,91,88,106
CCc1nc(-c2ccc(OC)cc2)cc2cc(OC)c(OC)cc12,.,101,91,106
COc1ccc(-n2nc(C(=O)N3CCN(c4ccccn4)CC3)c(=O)n(C)c2=O)cc1,-25,.,.,103
COC(=O)C1=C(C)NC2=C(C(=O)CC(c3ccc(OC)c(OC)c3)C2)C1c1ccc(Br)cc1 (stereo not drawn),-17,.,.,102
COc1ccc(N(C)S(=O)(=O)c2c(C)[nH]c(=O)[nH]c2=O)cc1,.,103,95,108
O=C(Nc1nccs1)c1c(-c2ccccc2)c(-c2ccccc2)n[nH]c1=O,-18,.,.,101
CCN(CC)C(=O)CSc1nnc(Cc2ccccc2)n1CC,-7,105,102,98
O=C(c1cc2c(s1)-c1ccccc1OC2)N1CCCC1,.,107,95,103
COc1ccc(C)cc1NC(=O)c1cnc2ccc(C)cn2c1=O,-29,98,88,99
O=c1[nH]c(SCc2ccccc2)nc2c1cnn2-c1ccccc1,-1&0,93,93,99
COc1ccc(-c2csc3ncnc(Nc4ccc(OC)cc4OC)c23)cc1,.,88,86,98
O=C(NC(=O)c1cccs1)OC[C@@H]1CCCN2CCCCC12 (stereo partly drawn),-1,85,86,.
C=CCNC(=O)CSc1nnc(C(CC)N(C)C)n1C1CCCCC1 (stereo not drawn),-3,121,106,.
COc1cccc([C@@H]2Nc3ccc(S(=O)(=O)Nc4ccccc4)cc3[C@@H]3C=CC[C@@H]32)c1,-16,89,83,128
O=C1CSCC(=O)N1Cc1ccncc1,1,90,95,103
COc1ccc(N2C(=O)c3c(C)nc4ccccc4c3C2=O)c(OC)c1,-45,.,.,99
Cc1nc2ccc(NC(=O)c3ccccc3C(F)(F)F)cc2o1,-10,101,84,102
COc1ccc(-c2onc(C)c2C)cc1S(=O)(=O)N(C)CC1COc2ccccc2O1 (stereo not drawn),34,101,106,106
C[C@]12CCC3c4ccc(O)cc4CCC3C1CC[C@@H]2OC(=O)CCC1CCCC1 (stereo partly drawn),-18,86,86,.
COc1cc(S(=O)(=O)NCCc2c[nH]c3ccccc23)ccc1-n1cnnn1,-8,104,81,102&97
Cc1cccc(OCc2nnc(SCC(=O)N3CC(=O)Nc4ccccc43)o2)c1,-25,96,83,.
COc1ccc(-c2noc(N(C)CC(=O)Nc3cc(Cl)c(OC)cc3OC)n2)cc1,11,100,104,108
Cc1cc(Cl)ccc1NC(=O)C1=CSCCO1,-38,.,.,105
O=C(/C=C/c1ccc(Br)cc1)On1c(-c2ccc(F)cc2)nc2ccccc2c1=O,-26,.,.,99
CC(Nc1ncnc2c1cnn2-c1cccc(Cl)c1)c1ccccc1 (stereo not drawn),.,132,99,109
CCCCn1c(N)c(N2CCC(C(N)=O)CC2)c(=O)[nH]c1=O,-10,72,94,.
COc1cc(/C=C2\SC(=O)N(Cc3ccc(F)cc3)C2=O)c(Br)cc1O,-18,.,.,171
CCOC(=O)C1CCN(C(=O)CN2c3ccc(CC)cc3-c3ccccc3S2(=O)=O)CC1,21,99,90,98
CCN1C(=O)/C(=c2\sc3nc(-c4ccccc4C)nn3c2=O)c2ccccc21,-8,96,90,110
CC(=O)N/N=C/c1c[nH]c2ccc(Br)cc12,-6,89,78,.
[O-]c1n[n+](-c2ccccc2)no1,-80,83,79,.
COc1ccc(CCCc2nnc(SCC(=O)Nc3cc(F)ccc3C)o2)cc1C,.,94,88,103
COc1ccc(N2CCN(C(=O)C3CCCN(S(=O)(=O)c4ccc5c(c4)oc(=O)n5C)C3)CC2)cc1 (stereo not drawn),-41,121,84,101
CCc1ccc(C2CC(=O)c3c([nH]c(C(=O)OC4CCC(C)CC4)c3C)C2)cc1 (stereo not drawn),-1,111,101,109
# Following part.
SMILES,HCMV UL50-53 inh,Sa growth inh,Sa growth inh second temp,GIV-Gai inh
O=C(/C=C\c1ccc2c(c1)OCO2)NC1CC(=O)N(c2ccc(Cl)cc2)C1 (stereo not drawn),.,117,91,91
CC(C)(C)c1coc2cc3oc(=O)ccc3cc12,-4,92,85,108
O=C1C(=O)c2ccccc2C(O)=C1c1ccccc1F,-109,74,32,96
CCOC(=O)c1oc2ccc3c(C)cc(=O)oc3c2c1-c1ccccc1,-11,98,86,97
Cc1cc(NS(=O)(=O)c2ccc(NC(=O)COc3cc(C)c(Br)cc3C(C)C)cc2)no1,-35,33,33,106
CC(C)c1nnc2sc(-c3c[nH]c4ccccc34)nn12,-19,.,.,102
O=C1CC(N2CCN(Cc3ccc4c(c3)OCO4)CC2)C(=O)N1c1ccccc1 (stereo not drawn),1,.,.,101
COC(=O)c1ccc(C(=O)OCCCc2nc3ccc(N)cc3[nH]2)cc1,-8,97,89,103
O=C(CN1N=C(c2ccccc2F)c2cc(Cl)ccc2S1(=O)=O)NCc1ccccc1,-14,.,.,104
CC(C)COC(=O)N1CCN(S(=O)(=O)c2ccccc2C#N)CC1,-18,74,87,.
O=C(CCS(=O)(=O)c1cccc2nsnc12)NCc1cccs1,-94,86,92,102
O=S1(=O)N=C(N2CCCC(C(F)(F)F)C2)c2ccccc21 (stereo not drawn),-7,105,89,.
CC(NC(=O)/C=C/c1ccccc1)C1COc2ccccc2O1 (stereo not drawn),2,111,76,98
O=S(=O)(c1ccccc1)c1cscc1NC(=S)Nc1ccccc1Cl,-18,106,91,107
O=C(CSc1nc2ccc(Nc3nc(N4CCOCC4)nc(N4CCOCC4)n3)cc2s1)NCC1CCCO1 (stereo not drawn),-12,.,.,108
CCc1cccc(-n2nnc(-c3nc(-c4ccc5c(c4)OCO5)no3)c2C)c1,.,88,87,101
O=C(CSc1nc(NCc2ccccc2)c2ccccc2n1)c1ccc(F)cc1,.,89,88,107
CCOC(=O)c1ccccc1NC(=O)Cn1c(=O)n(Cc2nc(C)no2)c(=O)c2cc3c(cc21)OCO3,-22,100,92,102
CCCCOC(=O)c1cc(=O)[nH]c(=O)[nH]1,-8,98,93,109
OC(CN1CCN(c2ccccc2)CC1)c1c[nH]c2ccc(F)cc12 (stereo not drawn),-34,.,.,107
CCOC(=O)C1=C(C)Nc2c(C#N)c(N3CCOCC3)nn2C1c1ccc(OC)cc1 (stereo not drawn),4,108,97,.
O=C(CCC(=O)c1ccc(F)cc1)OCc1ccc(Br)cc1,10,98,93,.
CCOC(=O)c1c(C)[nH]c(NC(=O)Nc2ccc(N(C)C)cc2)c1C,-8,104,85,103
O=C(CCN1C(=O)/C(=C/c2ccc3c(c2)OCO3)SC1=S)Nc1cc([N+](=O)[O-])ccc1O,-28,.,.,108
CCC(C(=O)NC1CCCC1)n1c(C(=O)OC)cc2ccsc21 (stereo not drawn),0,100,91,107
CCOc1ccc(OCC)c(NC(=O)C2CCN(S(=O)(=O)c3c(C)noc3/C=C/c3ccccc3F)CC2)c1,.,105,92,106
Cc1cc(C)c(C)c(Cn2c(CO)nc3ccccc32)c1C,3,106,99,101
Cc1cc2c3c(C)n(C4CCCCC4)c(C)c3c(C)nn2c1,.,109,80,109
COc1ccc(Nc2cc(C(=O)NCc3ccccc3)c3ccccc3n2)c(OC)c1,0,92,81,103
CSc1nc(-c2ccccc2)nc2c1Cc1ccccc1O2,.,79,77,95
N#Cc1ccc(COC(=O)CN2C(=O)CCOc3ccccc32)cc1,4,130,83,.
O=C(Nc1nc2c(F)cccc2s1)c1ccc(S(=O)(=O)N2CCOCC2)cc1,.,84,96,101
COc1ccc(-n2cc(-c3ccccc3)c3c(Nc4ccc(OC)c(OC)c4)ncnc32)cc1,.,118,80,109
CNc1nc2c(C)cccn2c(=O)c1C=Nc1ccc(OC)cc1,-25,83,77,99
COc1ccc(CNC(=O)c2ccc3c(c2)N(Cc2ccccc2)C(=O)c2ccccc2S3(=O)=O)cc1,-19,121,113,106
CCCCS(=O)(=O)NC1=NCN(CCOC(=O)c2ccccc2)CN1,-19,85,83,99
Cc1ccc(S(=O)(=O)NCCC(c2ccc(F)cc2)c2ccco2)cc1 (stereo not drawn),.,98,81,99
Cc1ccc(CSc2c(C)cnc3c2c(=O)n(C)c(=O)n3C)cc1,.,153,91,100
O=C1C=C(NNc2ccccc2)CCC1,-41,65,40,106
O=C(CC(=O)Nc1ccccc1F)Nc1ccc2nc3n(c(=O)c2c1)CCCCC3,-38&-29,89,77,105&100

# Part of the list above, reformatted:
molecule	HCMV UL50-53 inh	Sa growth inh	Sa growth inh second temp	GIV-Gai inh
CCOC(=O)C1CCN(C(=O)CN2c3ccc(CC)cc3-c3ccccc3S2(=O)=O)CC1	21	99	90	98
CCN1C(=O)/C(=c2\sc3nc(-c4ccccc4C)nn3c2=O)c2ccccc21	-8	96	90	110

# (listing goes on)
SMILES,HCMV UL50-53 inh,Sa growth inh,Sa growth inh second temp,GIV-Gai inh
CCN(CC(=O)Nc1ccc2c(c1)OCCO2)C(=O)CC1CCCC1,-7,90,95,.
Cc1cccc(-n2c(C)cc(C(=O)C(=O)Nc3ccccc3F)c2C)c1C,-8,94,86,105
CSc1n[nH]c(=O)n1-c1cccc(C(F)(F)F)c1,-21,99,88,102
CC(C)CCNC(=O)Nc1ccc2c(c1)N(Cc1ccccc1)C(=O)c1ccccc1S2,-34&-15,92,87,105&103
CCN(Cc1ccccc1)C(=O)c1ccc(C#N)cc1,1,90,91,.
COCCNC(=O)c1cccc(-n2c(C)nc3cccnc32)c1,.,145,88,106
CCN(CC)c1ccc(-c2nnc(SCC(=O)N3CCNC3=O)n2C)cc1,-2,105,99,.
CCN(CC)C(=O)CSc1nnc(-c2ccco2)n1CCCOC,-28,105,90,99
O=C1CCS(=O)(=O)N1c1ccc(S(=O)(=O)Nc2ccc(Br)cc2)cc1,-26,.,.,104
O=C(NC(=S)N1CCOCC1)C12CC3CC(CC(C3)C1)C2,-32,104,94,.

# Results in HCMV UL50-53 inh and Sa growth inh, for 2 of the compounds above:
mol	HCMV UL50-53 inh	Sa growth inh
CCN(CC)C(=O)CSc1nnc(-c2ccco2)n1CCCOC	-28	105
O=C1CCS(=O)(=O)N1c1ccc(S(=O)(=O)Nc2ccc(Br)cc2)cc1	-26	.

# Whole records from above.
# CCN(CC)c1ccc(-c2nnc(SCC(=O)N3CCNC3=O)n2C)cc1 is entered as HCMV UL50-53 inh: -2; Sa growth inh: 105; Sa growth inh second temp: 99; GIV-Gai inh: .
# CCN(Cc1ccccc1)C(=O)c1ccc(C#N)cc1 is entered as HCMV UL50-53 inh: 1; Sa growth inh: 90; Sa growth inh second temp: 91; GIV-Gai inh: .
# COCCNC(=O)c1cccc(-n2c(C)nc3cccnc32)c1 is entered as HCMV UL50-53 inh: .; Sa growth inh: 145; Sa growth inh second temp: 88; GIV-Gai inh: 106

# Following part:
SMILES,HCMV UL50-53 inh,Sa growth inh,Sa growth inh second temp,GIV-Gai inh
CCOC(=O)c1c(S(=O)(=O)N2CCCC(C(=O)Nc3ccc(C)cc3C)C2)c(C)n(CC)c1C (stereo not drawn),.,124,97,102
CN(C)S(=O)(=O)c1cccc(C(=O)OCC(=O)N2CCCCC2)c1,9,99,90,.
Cn1nc(C(=O)Nc2ccc(Br)cc2)c(Cl)c1C(F)(F)F,-4,.,.,101
CCOc1cc2[nH]c(=S)n(CCCCC(=O)NC3CCCCC3)c(=O)c2cc1OCC,.,94,85,102
Cc1nc(C)c(CCNS(=O)(=O)c2ccc(C)c(C)c2)s1,.,126,90,105
Cn1ncc(C(=O)N2CCN(c3ccccc3F)CC2)c1C1CCN(C(=O)OC(C)(C)C)CC1,.,98,91,109
Clc1ccc(-c2noc(CCCCc3nc4ccccc4[nH]3)n2)cc1,17,.,.,100
COc1ccc(C2=C(C)C(N3CCC(C(=O)Nc4ccc(F)cc4C)CC3)=NS2(=O)=O)cc1,.,119,82,105
O=C(NCC(=O)N1CCN(S(=O)(=O)c2ccccc2)CC1)c1ccc(Cl)cc1,11,85,94,.

# Source: PubChem BioAssay
